RanGTP-Impb inh = inhibitors of RanGTP-importin-beta interaction, primary screen, biochemical, FRET, CFP-Ran, YFP-importin-beta, homogeneous; Ran GTPase (GTP-bound) - importin-beta complex; cell-free CFP-Ran/YFP-importin-beta FRET ratio; inhibition, % (test concentration not listed); actives 1.1% (n = 300,000); AID 2216, 2009;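 active = most replicates above 15%; inconclusive = exactly half above 15%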;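 also: 0% = DMSO wells and 100% = Ran loaded with GDP instead of GTP; wells of about 40 µL received 100 nL stock; the first replicate is given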
Ecoli growth = E. coli growth inhibition, primary screen, OD600 | Escherichia coli growth, 23 h; hits give low values | OD600 absorbance (concentration not given with the values) | actives 0.21% (n = 330,000);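 active = OD600 absorbance below the run mean of sample wells minus 3.6 SD, in any replicate, cut at about 0.56 in these data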;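 also: stock transfer was 300 nL into about 60 µL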
AF4-AF9 inh = inhibitors of AF4 peptide binding to AF9, primary screen, biochemical, AlphaScreen, biotin-AF4 peptide, FLAG-AF9, single point; actives 0.47% (n = 350,000); AID 651704, 2012; inhibition, % at 10 µM; Protein AF-9 (Homo sapiens), P42568;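 active = every replicate reaching a set inhibition limit, whatever the replicate mean, cut at about 25% in these data; inconclusive = mean inhibition reaches that limit but some replicates miss it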;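 also: 0% = plate neutral control median and 100% = total signal loss; the record names both 10 and 1 µM as test concentration; the first replicate is given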
Target sequence (P42568 whole entry, looked up): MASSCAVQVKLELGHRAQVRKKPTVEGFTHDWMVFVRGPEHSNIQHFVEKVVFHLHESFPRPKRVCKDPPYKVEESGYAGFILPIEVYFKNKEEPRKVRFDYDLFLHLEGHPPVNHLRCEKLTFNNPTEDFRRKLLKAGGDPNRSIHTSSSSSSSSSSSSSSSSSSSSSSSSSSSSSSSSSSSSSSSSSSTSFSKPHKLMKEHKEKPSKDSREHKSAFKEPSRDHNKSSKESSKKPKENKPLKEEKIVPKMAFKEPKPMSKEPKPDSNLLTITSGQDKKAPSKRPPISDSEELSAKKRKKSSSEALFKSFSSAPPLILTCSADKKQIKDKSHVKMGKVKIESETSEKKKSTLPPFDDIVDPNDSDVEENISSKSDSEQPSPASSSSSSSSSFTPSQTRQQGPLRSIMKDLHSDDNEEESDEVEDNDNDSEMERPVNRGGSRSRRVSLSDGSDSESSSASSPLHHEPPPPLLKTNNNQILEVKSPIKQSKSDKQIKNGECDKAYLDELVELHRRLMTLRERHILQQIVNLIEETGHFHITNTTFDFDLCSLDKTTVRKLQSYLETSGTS
UCH37 inh = inhibitors of human UCH37 deubiquitinase, primary screen, biochemical, Ub-AMC cleavage, fluorescence; purified proteasome/UCH37; inhibition, % (no concentration beside the values); actives 0.33% (n = 330,000); AID 588478, 2011;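 active = mean of two replicates above 20%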;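 also: 0% = compound-free wells with enzyme and 100% = wells lacking proteasome; stock transfer was 100 nL into about 20 µL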
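Assay system: Proteasome-bound UCH37. Buffer or medium: pH 7.4 Tris-HCl (50 mM) with ovalbumin, ATP-MgCl2, DTT. Incubation: 30 min preincubation with enzyme, 25 min cleavage at room temperature. Measured by: fluorescence, ex 355 nm, em 460 nm. Read-out basis: percent inhibition. Control set: wells without proteasome as full block, compound-free enzyme plus substrate as uninhibited.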
FGF22 binding = binders of human FGF22 protein, primary screen, FGF22 synaptogenesis inhibitor project, biophysical, thermal shift, single point | Fibroblast growth factor 22 (Homo sapiens), Q9HCT0 | recombinant FGF22 thermal shift, SYPRO orange fluorescence; percent of sucrose octasulfate shift, DMSO zero | calls only at 9.99 µM | actives 1.5% (n = 340,000) | AID 651658, 2012;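 active = melting point raised past a set limit in the mean and every replicate; inconclusive = no clear call; three in four hits are not shown here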
Vif TR-FRET = inhibitors of Vif binding to APOBEC3G peptide, primary screen, biochemical, TR-FRET, GST-Vif 1-94, biotin-A3G peptide, dose response retest (AID 1117319) | Virion infectivity factor (Human immunodeficiency virus type 1 group M subtype B (isolate … | TR-FRET GST-Vif / biotin-A3G peptide binding; higher % means a stronger effect; test concentration not given here; strong numbers were not always called active | inhibition, %; hits with a dose series show IC50 in µM | actives 0.57% (n = 260,000);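 active = above the screen mean plus three standard deviations and confirmed in dose response; inconclusive = results disagree or hit not tested in dose response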;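 also: Vif residues 1-94 fused to GST binding biotinylated APOBEC3G peptide 110-148; 0% = full assay without inhibitor and 100% = GST in place of GST-Vif; retest series ran down from 100 µM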
HNF4A DNA FP = change in binding of human HNF4A to DNA, primary screen, biochemical, fluorescence polarization, FITC-DNA; Hepatocyte nuclear factor 4-alpha (Homo sapiens), P41235; 1 h; activity change, % at 10 µM; actives 0.3% (n = 360,000); AID 1224865, 2016; in the data active = activity change above about 30%, passing the limit was not always enough;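 also: controls were the assay level and a saturating level of protein; the project sought stronger binding though the title names inhibitors; some compounds called inactive have numbers as strong as hits; positive values seem to mean higher polarization but the record does not say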
Target sequence (P41235 whole entry, looked up): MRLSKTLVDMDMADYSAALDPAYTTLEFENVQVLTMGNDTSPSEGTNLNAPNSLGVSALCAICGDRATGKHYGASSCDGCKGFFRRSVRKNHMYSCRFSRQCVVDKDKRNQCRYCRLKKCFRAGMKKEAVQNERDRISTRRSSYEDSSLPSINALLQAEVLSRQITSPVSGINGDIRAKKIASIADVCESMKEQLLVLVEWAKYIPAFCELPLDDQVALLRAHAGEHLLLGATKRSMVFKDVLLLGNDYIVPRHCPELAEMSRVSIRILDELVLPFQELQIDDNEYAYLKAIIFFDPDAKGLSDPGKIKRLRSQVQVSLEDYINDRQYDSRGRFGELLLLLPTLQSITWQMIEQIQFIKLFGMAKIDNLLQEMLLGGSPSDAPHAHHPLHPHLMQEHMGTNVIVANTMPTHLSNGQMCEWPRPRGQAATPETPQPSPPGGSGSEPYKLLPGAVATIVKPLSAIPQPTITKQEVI
* = called active by the depositor; i = inactive; ? = inconclusive; / = not tested or not shown; & = joins results of further samples.

Start of the listing, in advance:
SMILES	RanGTP-Impb inh	Ecoli growth	AF4-AF9 inh	UCH37 inh	FGF22 binding	Vif TR-FRET	HNF4A DNA FP
CC(=O)N1Cc2cc(C(=O)NCc3cccc(F)c3)nc(-c3cccc(C4=CCCCC4)c3)c2[C@H]1CCO	/	/	2.9	/	i	/	2.9
COC(=O)N/N=C/c1ccc(/C=N/NC(=O)OC)cc1	1.1	/	-3.7	/	/	29.2%	0.1

The list itself, from the start:
SMILES	RanGTP-Impb inh	Ecoli growth	AF4-AF9 inh	UCH37 inh	FGF22 binding	Vif TR-FRET	HNF4A DNA FP
CC(=O)N1Cc2cc(C(=O)NCc3cccc(F)c3)nc(-c3cccc(C4=CCCCC4)c3)c2[C@H]1CCO	/	/	2.9	/	i	/	2.9
COC(=O)N/N=C/c1ccc(/C=N/NC(=O)OC)cc1	1.1	/	-3.7	/	/	29.2%	0.1
COCC(C)n1c(SCC(=O)N2CCOCC2)nc2ccccc2c1=O (centres undefined)	/	0.676	-2.0	1.8	i	/	-1.5
CCOc1ccc(CCNS(=O)(=O)c2c(C)nc3sccn3c2=O)cc1OCC	/	/	-4.1	/	i	/	2.2
Cc1ccc(SCc2cn3c(C)cc(C)nc3n2)cc1	1.6	0.669	-1.3	-0.6	i	-11.3%	1.1
Cc1ccc(C(=O)N/N=C\c2cc3c(cc2Br)OCO3)s1	1.6	/	/	/	/	3.2%	13.1
Cn1c(=O)[nH]c(=O)c2[nH]c(CN3CCN(Cc4ccccc4)CC3)nc21	0.4	0.733	-6.6	5.3	i	/	-2.4
O=c1c2[nH]cnc2n(-c2ccccc2)c(=O)n1Cc1ccccc1	5.3	0.692	-3.2	0.4	i	-6.5%	-2.0
Cc1cccc(CN2CCN(CC(=O)NCCCN3CCCC3=O)C2=O)c1	-0.6	0.703	/	-0.3	/	7.8%	0.6
Cc1cc(C)c(C#N)c(OCC(=O)c2ccc(Br)cc2)n1	1.4	0.763	/	1.4	/	-21.1%	3.3
COc1cc(OC)cc(-c2c(-c3ccc(F)cc3)c3cc(-c4cnc(OC)nc4)ccc3n2C)c1	/	0.831	/	0.9	/	/	2.8
CCC(c1nnc(SCC(=O)NNC(=O)c2ccccc2)n1Cc1ccccc1)N(C)C (centres undefined)	-5.1	0.678	7.3	-0.7	i	-3.5%	-1.6
C=CC[C@@H](CC(=O)NCCO)C(=O)NCCOC(=O)[C@@H](CC=C)Cc1ccc(F)cc1	/	0.666	-8.9	1.7	i	-0.5%	1.6
CN(C)/C=C/C(=O)c1ccc(Cl)cc1	-3.1	0.666	/	15.4	/	6.2%	1.9
O=C(COC(=O)C1CCC(=O)N1)Nc1ccccc1OC(F)F (centres undefined)	/	0.678	-3.1	-0.2	i	-4.7%	-4.5
Cc1csc2c(=O)sc(NC(=O)c3ccco3)nc12	1.4	0.606	-1.6	-6.7	i	/	-0.2
C=CCn1c(COc2cccc(C)c2)nnc1SCC(=O)NC(=O)NCc1ccco1	1.9	0.659	2.5	1.2	i	20.2%&3.8%	-4.4
COc1cc2c(cc1OC)C1(Nc3c-2c(-c2ccccc2)nn3-c2ccccc2)C(=O)Nc2ccccc21 (centres undefined)	5.3	/	/	-2.1	/	-9.7%	8.4
CCCC[C@@H]1CC2=C(C(=O)OC(C)(C)O2)[C@@H](c2ccc(Cl)cc2)O1	/	/	-1.0	/	i	/	-4.4
COc1ccc(NS(=O)(=O)c2cccc(C(=O)NN=C(C)c3ccco3)c2)cc1	/	0.682	2.9	2.6	i	/	4.0
COc1ccc(NC(=O)c2ccc(OCc3c(C)noc3C)c(OC)c2)cn1	0.1	0.726	-103.3	3.7	/	-2.3%	-1.2
CCCCNC(=O)C1(C)CCCCN1C(=O)c1ccc(C)c(F)c1 (centres undefined)	/	/	0.6	/	i	/	2.1
Cc1csc(NC(=O)CSc2nnc(C)c(=O)n2N)n1	1.4	0.686	-4.8	1.2	i	/	1.0
CCCCCCCCN1C(=O)[C@H](CC(=O)NCc2ccc(OC)c(OC)c2)C[C@@]2(C(=O)OC)CC(C)(C)CC=C12	/	/	-4.5	/	i	/	-3.9
CCCCN(C(C)=O)C1CC(=O)N(c2ccc(OCCC)cc2)C1=O (centres undefined)	1.1	0.608	-0.3	1.3	i	8.0%	3.5
Clc1ccccc1-c1cnc2sc(NCc3ccc4c(c3)OCO4)nn12	/	/	0.5	/	i	/	-1.7
CN1CCN(C(=O)CSc2nnc(COc3ccccc3)o2)CC1	-1.3	0.648	1.4	2.3	i	/	2.3
COc1cccc(C(c2nnnn2CCc2ccccc2)N2CCN(c3ccccc3)CC2)c1OC (centres undefined)	3.5	0.721	/	1.8	/	15.0%	2.6
Cc1cc(C)n(CC(=O)N/N=C/c2cc([N+](=O)[O-])ccc2O)n1	?	/	-4.4	/	i	20.3%	1.3
CC(C)CN1C(=O)C(=O)N(CC(=O)Nc2cc(Cl)ccc2Oc2ccccc2)C1=O	0.6	0.713	-0.1	3.3	i	6.8%	1.4
CN(C)S(=O)(=O)c1ccc(Cl)c(C(=O)Nc2nc3ccccc3[nH]2)c1	5.4	0.643	1.5	0.0	i	16.9%	-0.4
CN(C)c1ccc(/C=C/C(=O)c2ccc(O)cc2)cc1	/	/	-11.1	/	i	-2.4%	158.8
CC1CCN(C(=O)c2[nH]cnc2C(=O)N[C@@H](C)c2ccccc2)CC1	/	/	0.5	0.5	i	/	-1.5
Cc1ccccc1NC1=C(Cl)C(=O)OC1OC(C)C (centres undefined)	0.6	0.712	/	-1.4	/	-5.8%	3.9
CCN(CC)C(=O)CN1C(=O)C2(OCC(C)(c3ccccc3)CO2)c2ccccc21 (centres undefined)	-1.4	0.695	/	3.0	/	5.9%	0.9
Cc1c(C2Nc3ccccc3C(=O)N2O)cnn1C (centres undefined)	-1.1	0.7	/	3.0	/	9.6%	-0.4
O=C(COc1ccc2c3c(c(=O)oc2c1)CCCC3)NCCCN1CCOCC1	2.3	0.7	2.6	-23.7	i	/	2.0
CC(=O)N1N=C(c2cccs2)CC1c1ccc(Br)cc1 (centres undefined)	1.1	0.674	-0.1	-0.3	i	-25.5%	3.5
CSc1ncccc1C(=O)NCC1CCCCC1	2.9	0.701	-0.6	-1.4	i	0.6%	0.4
CCOc1cc2c(cc1OCC)C(c1ccccc1OC)OC(=O)C2 (centres undefined)	1.7	0.653	4.7	3.1	i	0.3%	0.1
Cc1ccc(S(=O)(=O)CC(=O)Nc2ncc([N+](=O)[O-])s2)cc1	0.4	0.639	-18.8	6.2	i	/	-0.1
CC(C)C(c1nnnn1Cc1ccc(F)cc1)N1CCN(Cc2ccc3c(c2)OCO3)CC1 (centres undefined)	4.0	0.703	/	2.1	/	9.3%	-2.0
N#Cc1nc(-c2cccs2)oc1N1CCN(Cc2ccccc2)CC1	1.9	0.669	30.6*	-137.8	i	-6.7%	-3.1
COc1ccc(S(=O)(=O)N2CN(Cc3ccco3)c3nc4ccccc4nc32)cc1	4.5	0.753	/	-23.6	/	?	9.9
COc1cc2ccccc2cc1C(=O)Nc1ccc2oc(=O)ccc2c1	3.2	0.703	0.6	-17.4	i	/	0.7
CCOCCn1c(C)c(C(=O)OCC)c2cc(O)c3ccccc3c21	/	0.747	9.0	0.0	i	5.8%	-0.3
Cc1ccc(S(=O)(=O)NNC(=O)C2CCN(S(=O)(=O)c3ccc(C)cc3)CC2)cc1	-2.9	0.725	/	-0.1	/	-5.8%	-0.7
CCC(C)(NC(=O)c1ccccn1)C(=O)NC1CCCCC1 (centres undefined)	-1.5	0.769	/	2.6	/	12.3%	-1.3
C#CCn1c(=NC(=O)c2cccs2)sc2cccc(OCC)c21	-0.7	0.712	-17.7	-3.8	i	-43.4%	-0.7
CC(NC(=O)Nc1ccc(F)cc1)c1ccc2c(c1)OCO2 (centres undefined)	-1.7	0.709	-1.9	5.1	i	-1.3%	1.2
CC(C)(C)NC(=S)N/N=C\c1ccc(-c2ccc([N+](=O)[O-])cc2)o1	-79.4	/	4.1	/	i	25.4%	64.4*
O=C(CCN1C(=O)C2C3C=CC(C3)C2C1=O)Oc1ccc2ccccc2c1 (centres undefined)	-2.4	0.695	-4.0	-0.2	i	-6.5%	0.0
CCCc1cc(=O)oc2cc(C)cc(OC(C)C(=O)NCC3CCC(C(=O)O)CC3)c12 (centres undefined)	-1.2	0.726	6.3	-104.7	i	/	4.1
CC(C)c1nc(SCC(=O)Nc2c[nH]c(=O)[nH]c2=O)c2cnn(-c3ccccc3)c2n1	6.9	0.709	1.9	2.1	i	-10.2%	12.2
CC(Nc1ccc(Br)cc1)C(=O)NC(=O)NC1CCCCC1 (centres undefined)	/	/	-6.6	/	i	/	-2.8
O=C1C(=Cc2cn(-c3ccccc3)nc2-c2ccc(OCc3ccccc3F)cc2)SC(=S)N1CCS(=O)(=O)O	/	/	6.0	/	i	/	-49.1
O=C(Nc1cc(S(=O)(=O)N2CCCC2)ccc1OCC(F)(F)F)c1ccncc1	/	/	-3.9	/	i	0.2%	-0.2
COc1ccc(-c2nc(SCc3ccc(C#N)cc3)[nH]c(=O)c2C#N)cc1	-2.5	0.671	-6.2	0.0	i	-6.8%	-1.1
Cn1c(CSc2ccccc2)c(C#N)c2ccccc21	4.7	0.727	/	4.8	/	5.0%	-1.7
CNC(=O)C1CC(=O)N(Cc2ccc(OC)c(OC)c2)C(=Nc2ccc(OC)cc2)S1 (centres undefined)	-1.1	0.707	/	4.9	/	30.1%	0.7
Other structures follow.
SMILES	RanGTP-Impb inh	Ecoli growth	AF4-AF9 inh	UCH37 inh	FGF22 binding	Vif TR-FRET	HNF4A DNA FP
COc1ccc(CCNc2nc3c(c(=O)n(C)c(=O)n3C)n2C)cc1OC	-0.7	0.711	/	3.7	/	-4.0%	-2.5
O=C(Nc1ccno1)Nc1ccc(Cl)cc1Cl	-0.7	0.6	1.8	2.4	i	31.0%	-1.6
Cc1cc(C)cc(-c2nnc(SCC(=O)c3c(N)n(C4CC4)c(=O)[nH]c3=O)o2)c1	/	0.726	1.2	0.5	i	-27.5%	2.2
O=C(O)CNC(=O)c1ccc(NC(=O)/C(=C/c2cccc([N+](=O)[O-])c2)NC(=O)c2ccco2)cc1	/	0.695	0.2	7.1	i	/	3.0
Cc1c(C)n(Cc2ccccc2)c2ncnc(NCCCO)c12	0.0	0.685	8.5	1.7	i	/	1.5
O=C(NC(=S)Nc1ccc(NC(=O)c2ccccc2)cc1)c1ccc(F)cc1	-5.8	0.657	1.7	2.2	i	-5.7%	-3.9
S=c1[nH]nc2ccccn12	/	0.71	4.3	-2.4	i	-1.2%	0.7
COc1ccc(C2CC(=O)c3cnc(N)nc3C2)c(OC)c1 (centres undefined)	2.9	0.742	/	-5.0	/	-0.6%	-0.3
Oc1ccc2c(c1)C1CCCC1(N1CCOCC1)O2 (centres undefined)	0.3	0.671	/	3.0	/	4.31µM*	0.9
CCC(=O)N1CCN(c2ccc(NC(=S)NC(=O)c3cc4ccccc4o3)cc2)CC1	5.5	0.72	1.9	2.2	i	-1.5%	-2.4
COc1cccc(NC(=O)C(=O)NCC2CCCN2S(=O)(=O)c2ccccc2)c1 (centres undefined)	-0.3	0.655	-6.7	3.3	i	-2.7%	1.8

Assay outcomes: PubChem BioAssay, several laboratories

A portion of the library (hit frequency here may not be typical).
